KCNQ2 pot = enhances the rat KCNQ2 potassium channel; O88943; CHO-K1 KCNQ2, FluxOR thallium flux fluorescence; hits give high values; B-score at 10 µM; 310,000 compounds, 0.54% hits; AID 2239;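 active means fluorescence ratio B-score at least 3 SD of library B-scores, with initial fluorescence B-score within 3 SD, cut at about 5.3 in these data; same plate scores as AID 2156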;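 further: B-score of peak minus minimum over baseline fluorescence ratio after K+ and Tl+ stimulus; positive B-score means potentiation of KCNQ2 with more thallium influx and brighter signal; only the inactives scoring about 0 or higher are listed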
Target sequence (O88943 whole entry, looked up): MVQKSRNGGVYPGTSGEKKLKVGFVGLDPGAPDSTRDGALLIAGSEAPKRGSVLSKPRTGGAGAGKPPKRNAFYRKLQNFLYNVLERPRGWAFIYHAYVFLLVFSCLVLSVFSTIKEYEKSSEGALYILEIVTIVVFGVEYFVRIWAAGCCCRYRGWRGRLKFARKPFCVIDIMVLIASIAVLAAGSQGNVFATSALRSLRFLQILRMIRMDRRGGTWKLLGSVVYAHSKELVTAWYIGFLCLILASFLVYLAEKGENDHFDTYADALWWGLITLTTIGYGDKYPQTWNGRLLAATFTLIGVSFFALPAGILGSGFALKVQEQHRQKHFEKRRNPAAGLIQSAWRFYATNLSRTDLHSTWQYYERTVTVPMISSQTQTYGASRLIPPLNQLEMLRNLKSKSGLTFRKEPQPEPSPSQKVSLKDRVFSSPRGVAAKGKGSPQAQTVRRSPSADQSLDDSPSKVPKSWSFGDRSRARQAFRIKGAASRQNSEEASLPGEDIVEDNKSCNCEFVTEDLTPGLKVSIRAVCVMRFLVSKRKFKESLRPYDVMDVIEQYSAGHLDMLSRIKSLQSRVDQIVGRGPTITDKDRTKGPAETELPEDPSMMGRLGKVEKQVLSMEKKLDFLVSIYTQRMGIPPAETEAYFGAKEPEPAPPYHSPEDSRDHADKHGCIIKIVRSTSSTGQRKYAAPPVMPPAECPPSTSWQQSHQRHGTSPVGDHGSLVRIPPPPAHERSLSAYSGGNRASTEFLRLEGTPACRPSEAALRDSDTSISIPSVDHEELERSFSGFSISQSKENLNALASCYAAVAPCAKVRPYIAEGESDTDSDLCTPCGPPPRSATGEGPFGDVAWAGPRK
KCNQ2 pot baseline = recorded beside KCNQ2 pot, whose call it bears; B-score; compound at 10 µM; measured here: initial fluorescence intensity artifact check;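 brightness before thallium and not channel activity; 0 = typical well and far values either way flag optical interference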
An asterisk follows results filed as active.

SMILES | KCNQ2 pot | KCNQ2 pot baseline
O=C(C1CCCN1S(=O)(=O)c1ccc(Cl)c(Cl)c1)N1CCOCC1 (centres undefined) | 1.5 | 2.9
O=C(Nc1nccs1)c1cc(Cl)ccc1[N+](=O)[O-] | 1.2 | -0.4
COCCn1c(SCc2ccc(C(=O)OC)o2)nnc1-c1c[nH]c2ccccc12 | 0.1 | -0.62
Cc1ccc(/C=N/NC(=O)NN(C)c2ncc(C(F)(F)F)cc2Cl)cc1 | 1.1 | -1.2
CCC(C)Sc1nc2c(c(=O)[nH]c(=O)n2C)n1CC(O)COc1ccccc1C (centres undefined) | 0.95 | -1.1
COc1ccccc1CNC(=O)CC1Sc2ccccc2NC1=O (centres undefined) | 0.17 | 1.2
CC1(C)NC(=O)N(CC(O)CN2C(=O)NC(C)(C)C2=O)C1=O | 0.41 | 0.6
Cc1ccc(-c2nnc(NC3CCCC3)s2)cc1 | 0.71 | -0.15
COc1ccc(Cc2nc3ccc(C(=O)N4CCN(C)C(C)C4)cc3o2)cc1OC (centres undefined) | 2.1 | -0.19
CC(=O)n1c2ccccc2c2nc3ccccc3nc21 | 0.33 | -0.02
Cc1ccc(C)c(S(=O)(=O)N2CCN(C(=O)c3ccc(N4CCCC4)c([N+](=O)[O-])c3)CC2)c1 | 1.2 | 1.4
Cc1occc1-c1nnc(SCC(=O)Nc2ccccc2-c2ccccc2)n1C | 0.05 | 1.4
COc1cccc(-c2cc(C(=O)Nc3ccc4c(c3)OCCO4)c3ccccc3n2)c1 | 0.82 | 1.2
CC(Oc1ccc(Cl)cc1Cl)C(=O)NNC(=O)[C@@H]1CCCC[C@@H]1C(=O)O (some centres undefined) | 0.06 | 0.77
COC(=O)CON1C(=O)c2ccccc2C1=O | 1 | 0.39
O=C(Nc1ncc2c(n1)-c1ccccc1OC2)c1cccc([N+](=O)[O-])c1 | 0.63 | -1.3
Cc1ccc(-c2nn[nH]n2)cc1 | 0.03 | 0.23
Cc1cccc(N(Cc2ccccc2)C(=O)c2cc(S(=O)(=O)N3CCOCC3)ccc2Cl)c1 | 0.58 | -0.88
O=C1COc2ccc(S(=O)(=O)CCC(=O)NC3CCCCC3)cc2N1 | 0.2 | 0.66
N#Cc1c2n(c3c(=O)n(CC(=O)c4ccc(Br)cc4)cnc13)CCCC2 | 1.1 | -0.03
COc1cc(C(=O)NC(=S)Nc2ccc(N3CCCC3)cc2)cc(OC)c1OC | 0.34 | -0.04
Cc1noc(C(=O)Nc2ccc(Cl)cc2)c1Cl | 0.11 | 0.33
COc1ccc2c(c1)CC/C(=C\Nc1ccc3c(c1)OCO3)C2=O | 1.3 | 0.85
O=C(CSc1nnc(-c2ccccc2)n1Cc1ccccc1)NC1CC1 | 0.54 | 0.66
Cc1ccc2[nH]c(=O)c(CN(C)S(=O)(=O)c3cccc4nonc34)cc2c1 | 0.02 | 0
CCN1CCN(C(c2cccs2)C(C)NC(=O)c2c(F)cccc2F)CC1 (centres undefined) | 0.85 | -0.28
COC(=O)C1=C(C(=O)OC)[C@@H]2N(C)c3ccccc3[C@@]23C[C@@H](C(=O)OC)N(C(=O)C2CCC2)C3=N1 | 0.18 | 0.25
COc1ccc(NC(=O)COc2nsnc2N2CCOCC2)c(OC)c1 | 1.8 | -1.4
CC(C)Cn1c(N)c(C(=O)COC(=O)c2ccc(O)cc2)c(=O)n(C)c1=O | 0.81 | 0.37
COc1ccc2oc(=O)c(C(=O)NCc3cccnc3)cc2c1 | 0.06 | 0.01
O=C(OCC(=O)N1CCc2ccccc2C1)c1cc(=O)[nH]c2ccccc12 | 1.3 | -0.53
O=S(=O)(c1ccc(Br)s1)N1CCNCC1 | 0.03 | 0.05
Cn1c(=O)c2cc(S(=O)(=O)NCCC(=O)NCC3CCCO3)ccc2n(C)c1=O (centres undefined) | 1.1 | 0.05
C=CCc1cccc2cc(C(=O)NCCOC)c(=O)oc12 | 0.89 | -0.69
Cc1ccc2[nH]cc(S(=O)(=O)c3ccc(C)c(C)c3)c(=O)c2c1 | 0.37 | -1.1
CCn1cc(C(=O)NCC(OC)OC)c(=O)c2cc(S(=O)(=O)N3CCC(C)CC3)ccc21 | 0.41 | -2.2
Cc1ccc(-c2noc(CCC(=O)NCCN3CCc4ccccc4C3)n2)cc1 | 1.7 | -0.85
CCc1ccc(Nc2cc(C)nc3ncnn23)cc1 | 1.4 | 1.1
Cc1ccc(/C(N)=N/OC(=O)COc2ccc(Cl)c(C)c2)cc1 | 1.6 | -0.7
Cc1ccc2oc(C(=O)N3CCN(CCO)CC3)c(C)c2c1 | 0.38 | -1.3
O=C1NC(=O)N(Cc2ccccc2F)C1=O | 0.44 | -0.11
CC1CC(C(F)(F)F)n2ncnc2N1 (centres undefined) | 0.6 | -0.04
CCCOC(=O)Nc1cc(OC)ccc1[N+](=O)[O-] | 1.5 | 0.27
O=C(CSc1ccccn1)N1CCOCC1 | 0.15 | 1.4
O=C(OCc1nc2ccccc2[n+]([O-])c1C(=O)c1ccccc1)c1ccco1 | 0.67 | -0.13
CCOC(=O)C1C(=O)NC(N2CCCCC2)=NC1c1ccccc1 (centres undefined) | 2 | -0.8
C=CCn1c(SCC(=O)Nc2ccc(N3CCOCC3)cc2)nnc1-c1ccncc1 | 1.5 | 0.01
Cc1ccc(NCc2nnc(SCC(=O)N3CCCc4ccccc43)o2)c(C)c1 | 0.26 | 0.28
Cc1ccsc1C1Nc2ccc3ncccc3c2C2=C1C(=O)CCC2 (centres undefined) | 0.26 | 0.06
CCOc1ccccc1N(CC(=O)NC1CCCCC1)C(=O)CCC(=O)Nc1nccs1 | 0.83 | -0.63

Among those listed so far, 7 have a Cl atom.
SMILES | KCNQ2 pot | KCNQ2 pot baseline
O=C(C1CCCN1S(=O)(=O)c1ccc(Cl)c(Cl)c1)N1CCOCC1 (centres undefined) | 1.5 | 2.9
O=C(Nc1nccs1)c1cc(Cl)ccc1[N+](=O)[O-] | 1.2 | -0.4
Cc1ccc(/C=N/NC(=O)NN(C)c2ncc(C(F)(F)F)cc2Cl)cc1 | 1.1 | -1.2
CC(Oc1ccc(Cl)cc1Cl)C(=O)NNC(=O)[C@@H]1CCCC[C@@H]1C(=O)O (some centres undefined) | 0.06 | 0.77
Cc1cccc(N(Cc2ccccc2)C(=O)c2cc(S(=O)(=O)N3CCOCC3)ccc2Cl)c1 | 0.58 | -0.88
Cc1noc(C(=O)Nc2ccc(Cl)cc2)c1Cl | 0.11 | 0.33
Cc1ccc(/C(N)=N/OC(=O)COc2ccc(Cl)c(C)c2)cc1 | 1.6 | -0.7

Other records:
SMILES | KCNQ2 pot | KCNQ2 pot baseline
CCOc1ccc(NCc2cccn2-c2nnc(N3CCC(C(=O)NCCCN4CCCCC4C)CC3)s2)cc1 (centres undefined) | 0.22 | 0.99
Cc1cc(C)n(C(=O)CCCC(=O)n2nc(C)cc2C)n1 | 0.98 | -0.47
CC(=O)Nc1cccc(-c2cn3ccccc3n2)c1 | 0.34 | -1.4
CC(=O)N1CCN(CC(C)(C)NS(=O)(=O)c2ccc(C)cc2)CC1 | 0.25 | -0.01
O=C(CN1CCOCC1)Nc1ccc(NC(=O)c2ccccc2F)cc1 | 0.01 | 0.14
COc1ccc(-c2csc(-n3ncc(-c4cccs4)c3N)n2)cc1 | 0.84 | 0.3
Clc1ccc(-n2nnc(-c3ncc[nH]3)n2)cc1Cl | 0.75 | -0.31
CC(C)(C)NC(=O)NC(=O)CSc1nncs1 | 0.98 | 0.99
Cn1nnnc1SCCNCc1ccncc1 | 0.95 | 0.68
O=C(CSc1nnc(-c2ccncc2)o1)Nc1ccccc1C(F)(F)F | 0.55 | -0.11
O=C(Nc1ccc(F)cc1)C1=CC(=O)N2CCN=C2S1 | 0.45 | 0.1
CC(=O)c1cccc(OCc2cc(C(=O)N3C[C@@H](C)O[C@@H](C)C3)no2)c1 | 0.54 | -0.22
COc1ccc(-c2oc3ncnc(NCCN4CCOCC4)c3c2-c2ccc(OC)cc2)cc1 | 0.73 | 0.42
O=C(OCC(=O)N1CCC(Cc2ccccc2)CC1)c1ccccc1 | 0.04 | -0.62
Cc1noc(C)c1C(=O)NCCc1ccccc1 | 0.28 | -0.05
Cc1ccc(S(=O)(=O)CC2CSc3nc(N)cc(=O)n32)cc1 (centres undefined) | 0.46 | -0.08
Cc1ccc(S(=O)(=O)N2CC(C)N(C(=O)N3CCOCC3)C2)cc1 (centres undefined) | 0.12 | 0.7
CN1CCN(c2ccc(Cl)cc2NC(=O)C2COc3ccccc3O2)CC1 (centres undefined) | 1.4 | -0.73
COc1nccnc1NS(=O)(=O)c1ccc(NC(=S)NC(=O)c2ccc(F)cc2)cc1 | 2 | 0.55
CCOC(=O)Cn1cnc2c(cnn2-c2ccc(OC)cc2)c1=O | 0.95 | 0.7
O=C(Nc1c[nH]c(=O)[nH]c1=O)c1ccccc1Br | 1 | -1.3
CNC1=CC(=O)CC(c2ccccc2)C1 (centres undefined) | 1.1 | -0.48
CCN1CCN(C(=O)CN(c2ccc(F)c(Cl)c2)S(C)(=O)=O)CC1 | 1 | -1.8
COc1cccc(OC)c1NC(=O)C1CCCN1C(=O)NCc1ccccc1 (centres undefined) | 0.56 | 0.51
Cc1ccc(S(=O)(=O)N2CCOCC2)cc1NC(=O)CSc1ccc(Cl)cc1 | 0.95 | 0.48
CC(=O)Nc1ccc2nc(NC(=O)c3ccc([N+](=O)[O-])o3)sc2c1 | 0.56 | -2.1
COc1cccc(OC)c1C(=O)Nc1cccc(-c2ccc(N3CCOCC3)nn2)c1 | 1 | -0.42
CCOC(=O)N1CCN(C(=O)CSCc2ccccc2Cl)CC1 | 0.94 | -0.71
CCOC(=O)N1CCN(S(=O)(=O)c2ccc(C(=O)NNc3nc4c(C)cc(C)cc4s3)cc2)CC1 | 1.2 | 1.1
COc1ccc(NC(=O)c2ccco2)cn1 | 0.45 | 2
O=C(CCCN1C(=O)c2ccccc2C1=O)Nc1ccc(S(=O)(=O)N2CCCCC2)cc1 | 0.09 | -1.9
COc1ccc(NC(=O)c2cc(-c3ccco3)nc3ccccc23)cc1 | 0.32 | -0.99
COc1cc(/C=C2/C(=O)NN(c3ccc(Cl)cc3)C2=O)cc(Br)c1O | 1.6 | -2
COc1ccc(CNc2cc(NCCCO)c([N+](=O)[O-])c3nonc23)cc1 | 0.44 | -1.6
COc1ccc(OCCC(=O)c2ccc(OC)cc2)cc1 | 1.6 | -0.63
CCn1c(SCC(=O)N2CCOCC2)nc2sc3c(c2c1=O)CCCC3 | 0.16 | -0.08
Cc1cc2[nH]c(=O)c(=O)[nH]c2cc1S(=O)(=O)NCc1ccccc1 | 0.54 | 2
Cc1c(C)n2c(SCC(=O)Nc3cccc4ccccc34)nnc2[nH]c1=O | 0.36 | -0.13
CNC(=O)c1ccc(Nc2nnc(C)c3ccccc23)cc1 | 1.2 | 0.27
CNc1nc(N)c([N+](=O)[O-])c(NCCO)n1 | 0.3 | 1.9
COc1ccc(-c2ccc(-c3nnn(CC(=O)N4CCOCC4)n3)cc2)cc1 | 1.4 | -0.45
O=C(COc1ccccc1-c1ccccc1)NNC(=O)NC1CCCCC1 | 3 | 1.7
COc1ccc(C(C)(C)C)cc1NC(=O)c1ccc2c(c1)SC1=NS(=O)(=O)CCN12 | 0.86 | -0.22
C=C(C)Cn1c(-c2cccc([N+](=O)[O-])c2)n[nH]c1=S | 0.17 | 1.2
CC(C)(C)c1cc(CN2CCN(CCC#N)CC2)cc(C(C)(C)C)c1O | 1.6 | -1.1
CCN(CC)c1ncnc2ccc(Br)cc12 | 0.96 | 0.1
COc1ccccc1/C=C1\SC(=S)N(CCC(=O)NCCc2ccc(O)cc2)C1=O | 0.08 | 0.76
O=C(CN1C(=O)CSC1=O)Nc1ccccc1F | 0.99 | -2.6
Cn1cnc(S(=O)(=O)N2CCN(c3cccc(C(F)(F)F)c3)CC2)c1 | 2.9 | -0.77
COC(=O)CSc1nc2c(cnn2-c2ccc(F)cc2)c(=O)[nH]1 | 0.46 | 0.03

Next compounds:
SMILES | KCNQ2 pot | KCNQ2 pot baseline
COc1ccc(-c2nnc(NC(=O)c3ccc(S(=O)(=O)N4CCCc5ccccc54)cc3)o2)cc1 | 0.83 | 0
COc1cccc(CC2(CO)CCCN(Cc3ccc(OC(F)F)cc3)C2)c1 (centres undefined) | 0.73 | -0.15
O=C(Nn1cnc2ccccc2c1=O)c1ccccc1 | 0.04 | -0.86
CC(=O)Nc1ccc(OCC(O)CNC2CCCC2)cc1 (centres undefined) | 1.5 | 0.03
CSCc1cc(N2CCCC2)nc(-c2ccccc2)n1 | 0.04 | -0.19
O=C(Nc1ccc(NC(=O)C2CC2)nc1)c1cccnc1 | 0.5 | 0.07
Cn1c(=O)oc2cc(S(=O)(=O)NCCc3ccccc3)ccc21 | 1.1 | 0.12
Cc1ccc(C)c(OCCC(=O)OCC(=O)Nc2cccnc2Cl)c1 | 1.5 | 0.64
CCn1ccnc1CN1CCCC(CO)(Cc2cccc(OC)c2)C1 (centres undefined) | 0.4 | -0.92
Cc1cccc2sc(N(CCCN(C)C)C(=O)c3ccc(S(=O)(=O)N4CCc5ccccc5C4)cc3)nc12 | 0.55 | 0.03
CCCn1nnnc1NCc1cccc(OC)c1OCC | 1.1 | 0.49
COc1cc(CN(CCN(C)C)Cc2ccccc2)ccc1OCc1ccccc1 | 0.35 | 2.1
Cc1nc2ccccc2nc1N1CCCC1 | 1.5 | 0.85
COc1ccc(-c2cc3cc(OC)c(OC)cc3c(C)n2)cc1 | 0.86 | 0.59
CC(=O)Nc1nc(CCN2C(=O)c3ccccc3C2=O)cs1 | 1.4 | 0.37
Cc1ccc(/C=N/NC(=O)NC23CC4CC(CC(C4)C2)C3)o1 | 0.29 | 0.4
O=C(COc1ccccc1)N1CCN(C(=O)Cc2ccccc2)CC1 | 0.98 | -4
CNS(=O)(=O)c1cn(CC(=O)NCc2ccc(N(C)C)cc2)cc1S(=O)(=O)NC | 0.46 | -1.4
COc1ccc(/C=C2\SC(=S)N(CC(=O)Nc3nnc(C)s3)C2=O)cc1 | 1.1 | 0
Cc1cc(C(=O)NC2CC(C)(C)Cc3c2cnn3-c2ccccc2)n[nH]1 (centres undefined) | 0.11 | 1.6

A portion of the library (hit frequency here may not be typical).
